GIRK2 act: activators of human GIRK2 potassium channels | G protein-activated inward rectifier potassium channel 2 (Homo sapiens), P48051 | HEK293-GIRK2 thallium flux, Thallos fluorescence | calls only for hits at 25 µM | actives 0.05% (n = 63,000);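 active means among the strongest 0.2% of first-round signals and kept after retests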;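 further: first round at about 10 µM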
Target sequence (P48051 whole entry, looked up): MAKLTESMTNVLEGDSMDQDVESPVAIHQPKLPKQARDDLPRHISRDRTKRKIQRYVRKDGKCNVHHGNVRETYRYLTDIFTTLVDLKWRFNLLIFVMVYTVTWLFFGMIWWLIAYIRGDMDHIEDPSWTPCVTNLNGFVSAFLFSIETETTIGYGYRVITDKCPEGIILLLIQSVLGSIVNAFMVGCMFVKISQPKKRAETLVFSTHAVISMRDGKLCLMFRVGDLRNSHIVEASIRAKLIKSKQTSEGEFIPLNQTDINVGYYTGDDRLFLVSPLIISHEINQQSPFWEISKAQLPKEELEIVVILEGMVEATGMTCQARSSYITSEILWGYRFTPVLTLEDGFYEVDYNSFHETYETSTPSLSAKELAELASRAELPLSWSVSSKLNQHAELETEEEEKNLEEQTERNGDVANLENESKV
Calls only.

O=C(CSc1nc2ccccc2o1)NCc1nc(-c2ccccc2)no1 was read as GIRK2 act inactive.
Screening Cn1nc(C2CCN(Cc3cccc(C(F)(F)F)c3)CC2)n(-c2ccccc2)c1=O returned GIRK2 act inactive.
For Cn1c(N2CCCCCC2)nc2c1c(=O)n(Cc1ccccc1Cl)c(=O)n2C the results were GIRK2 act inactive.
Screening COc1ccccc1NC(=O)CSc1nccn1-c1cccc(C(=O)NCc2ccccc2F)c1 returned GIRK2 act inactive.
COc1ccccc1CNC(=O)Cn1nc(-c2ccccc2)ccc1=O was read as GIRK2 act inactive.
Cc1cc(C(O)CCNC(=O)COc2cccc3c2OC(C)(C)C3)c(C)o1 (stereo not given) was read as GIRK2 act inactive.
Screening COc1cc(C)c(C)cc1S(=O)(=O)N1CCOC(c2cc(Cl)cc(Cl)c2)C1 (stereo not given) returned GIRK2 act inactive.
`COc1ccccc1OCC#CCNC(=O)c1cncc(Br)c1` gave GIRK2 act inactive.
CCOc1ccc2c(c1)c(=O)c(S(=O)(=O)c1ccc(C)cc1)cn2CC(=O)Nc1ccccc1C was read as GIRK2 act inactive.
`COC(=O)c1ccc2c(=O)n(CC(=O)NC3CCN(Cc4ccccc4)CC3)c(=S)[nH]c2c1` gave GIRK2 act inactive.
For CCOC(=O)C1=C(C)NC(=O)NC1c1ccc(F)cc1 (stereo not given) the results were GIRK2 act inactive.
For NC1=NC(=O)/C(=C/c2ccc3ncccc3c2)S1 the results were GIRK2 act inactive.
`Cn1c(=O)[nH]c(=O)c2c1nc1n2CCN1CCN1CCOCC1` gave GIRK2 act inactive.
Cc1ccc(NC(=O)COc2cc(C)nc(-c3ccc(F)cc3)n2)c(C)c1 was read as GIRK2 act inactive.
O=C(Cn1cc(S(=O)(=O)N2CCOCC2)ccc1=O)Nc1ccccc1Cl was read as GIRK2 act inactive.
Screening FC(F)(F)c1cccc(-c2nn3ncccc3c2-c2ccnc(Nc3ccc4c(c3)OCCO4)n2)c1 returned GIRK2 act inactive.
For O=S(=O)(Cc1ccccc1Cl)NCC(O)c1ccoc1 (stereo not given) the results were GIRK2 act inactive.
`O=C(NCC1CCS(=O)(=O)C1)C1CC(=O)N(c2ccc(F)cc2)C1` (stereo not given) gave GIRK2 act inactive.
COc1ccc(C(=O)Nc2nsc(-c3ccccc3)n2)cc1OC was read as GIRK2 act inactive.
`O=C(Nc1nnc(-c2ccc(Br)o2)o1)c1cc(-c2ccccc2)on1` gave GIRK2 act inactive.
For COc1ccc(CNC(=O)c2cc(=O)c(OCc3cccc(OC)c3)co2)cc1 the results were GIRK2 act inactive.
O=C(Cc1cccs1)N1CCC(CSC2=NCCS2)CC1 was read as GIRK2 act inactive.
For COc1ccc(OC)c(C(O)CNC(=O)CN)c1 (stereo not given) the results were GIRK2 act inactive.
`O=C(Nc1cccc2nsnc12)c1ccc(=O)oc1` gave GIRK2 act inactive.
For CC(C)n1c(CN2CCN(Cc3ccccc3)CC2)nc2ccccc21 the results were GIRK2 act inactive.
`CCOc1ccc(S(=O)(=O)N(C)C)c2ccccc12` gave GIRK2 act inactive.
`Cc1ccc(-n2ncc3c(=O)n(CC(=O)N4CCC(C)CC4)cnc32)c(C)c1` gave GIRK2 act inactive.
`Cn1nc(-c2ccccc2)cc1C(=O)N1CC(Oc2nc3ccccc3s2)C1` gave GIRK2 act inactive.
For CCc1ccc(C(=O)NCCNc2ccc(-n3cccc3)nn2)cc1 the results were GIRK2 act inactive.
Screening CC(Oc1ccccc1)C(=O)Nc1cccc2ccc(-n3cccc3)nc12 (stereo not given) returned GIRK2 act inactive.
For CC(C)NC(=O)N1CCCC(c2nnc(-c3cccs3)o2)C1 (stereo not given) the results were GIRK2 act inactive.
`O=C(NC1CCCC1)c1nnn(-c2ccc(NC(=O)c3c(F)cccc3Cl)cc2)n1` gave GIRK2 act inactive.
O=C(NC1CCSC1=O)c1coc(NC(=O)C2CC2)n1 (stereo not given) was read as GIRK2 act inactive.
Screening Cn1c(=O)[nH]c(=O)c2c1nc(N1CCN(CCO)CC1)n2CCCOc1ccccc1 returned GIRK2 act inactive.
COCCN(Cc1ccoc1)C(=O)COc1ccc(C(C)(C)C)cc1 was read as GIRK2 act inactive.
For O=C(CSc1ccc(F)cc1)Nc1nc2c(s1)COCC2 the results were GIRK2 act inactive.
`Cn1nnnc1SCC(=O)N1CCC(Oc2ccc(C(F)(F)F)cn2)CC1` gave GIRK2 act inactive.
For COc1ccc(CCNC(=O)CSc2ccc3ccccc3n2)cc1OC the results were GIRK2 act inactive.
`CN(C)S(=O)(=O)c1ccc(C(=O)NCCN2CCN(c3ccccc3F)CC2)cc1` gave GIRK2 act inactive.
For O=C(NCCCN1CCCC1=O)c1nnn(-c2ccc(Br)cc2)n1 the results were GIRK2 act inactive.
Screening CC(Cc1ccco1)NS(=O)(=O)c1ccc(N2CCCCS2(=O)=O)cc1 (stereo not given) returned GIRK2 act inactive.
CCC1(CC)NC(=O)N(CC(=O)Nc2ccc(C(=O)OC)cc2)C1=O was read as GIRK2 act inactive.
`O=C(c1ccoc1)N(CCc1cccs1)Cc1ccoc1` gave GIRK2 act inactive.
Screening Cc1cccc(NS(=O)(=O)c2ccc(CN3C(=O)CCC3=O)cc2)c1 returned GIRK2 act inactive.
O=C(c1cc(-c2ccccc2)on1)N(Cc1ccoc1)Cc1cccs1 was read as GIRK2 act inactive.
COCCn1c(C)cc(C(=O)CSc2nnc3ccc4ccccc4n23)c1C was read as GIRK2 act inactive.
Screening CCOc1cc(=O)c(C(=O)N2CCC(C)CC2)nn1-c1cc(OC)cc(OC)c1 returned GIRK2 act inactive.
CS(=O)(=O)c1ccc(-c2nnc(SCC(=O)O)o2)cc1 was read as GIRK2 act inactive.
Screening CN(C)S(=O)(=O)c1ccc(C(=O)Oc2ccc(/C=C/c3ccccn3)cc2)cc1 returned GIRK2 act inactive.
Screening Cc1cc(NC(=O)C23CC4CC(CC(C4)C2)C3)n(-c2nc3c(cnn3-c3ccc(C)c(C)c3)c(=O)[nH]2)n1 returned GIRK2 act inactive.
For COc1cccc(C(=O)Nc2nnc(-c3cccs3)o2)c1OC the results were GIRK2 act inactive.
`COc1ccccc1C(=O)N1CCC(c2nnc(C(C)C)o2)CC1` gave GIRK2 act inactive.
Screening Cc1cc(=O)n(CCNC(=O)C(c2ccccc2)c2ccccc2)cn1 returned GIRK2 act inactive.
O=C(Oc1ccc2c(=O)c(-c3ccccc3)coc2c1)C1CCCCC1 was read as GIRK2 act inactive.
Screening O=C(c1cc(C2CC2)on1)N1CCCSCC1CN1CCCCC1 (stereo not given) returned GIRK2 act inactive.
`Cc1ccc(Cn2c(=O)c3c(nc4n(-c5ccccc5O)c(C)cn34)n(C)c2=O)cc1` gave GIRK2 act inactive.
`COc1ccccc1OCC#CCNC(=O)NCc1cccs1` gave GIRK2 act inactive.
For COc1ccc(C)cc1NC(=O)Cn1c(-c2nc(-c3cccc(F)c3)no2)cccc1=O the results were GIRK2 act inactive.
Screening COc1ccc(OC)c(-n2c(C)cn3c4c(=O)n(CC(C)=O)c(=O)n(C)c4nc23)c1 returned GIRK2 act inactive.
`COc1ccc(C)cc1NC(=O)c1oc2c(c1C)C(=O)CC(C)(C)C2` gave GIRK2 act inactive.
Screening CCOC(=O)COc1ccc2c(=O)c(Oc3ccc(OC)cc3)c(C)oc2c1 returned GIRK2 act inactive.
Screening O=C(c1ccccc1Br)N1CCC(c2ccccc2)C1 (stereo not given) returned GIRK2 act inactive.
Screening COc1ccc(S(=O)(=O)N2CCN(S(=O)(=O)c3ccc(OC)c(C)c3)C(C)C2)cc1C (stereo not given) returned GIRK2 act inactive.
For Cc1cccc(N2CCn3c2nc2c3c(=O)n(CC(=O)O)c(=O)n2C)c1 the results were GIRK2 act inactive.
Cc1c(Cl)cccc1NC(=O)CSc1ccncn1 was read as GIRK2 act inactive.
`COc1ccc(S(=O)(=O)N2CCCc3cc(NC(=O)c4cccc(C)c4)ccc32)cc1` gave GIRK2 act inactive.
`Cc1nc(SCC(=O)Nc2cc(Cl)cc(Cl)c2)cc(-c2ccccn2)n1` gave GIRK2 act inactive.
Screening CC(C)(C)c1ccc(S(=O)(=O)NCC#CCN2CCCC2)cc1 returned GIRK2 act inactive.
`CCOCCn1c(N(C)Cc2ccccc2)nc2c1c(=O)[nH]c(=O)n2C` gave GIRK2 act inactive.
For Cc1ccc(S(=O)(=O)c2cn(CC(=O)Nc3ccccc3)c3ccc(Cl)cc3c2=O)cc1 the results were GIRK2 act inactive.
O=C(NCCCc1ccccc1)c1sccc1S(=O)(=O)N1CCN(c2ccccc2)CC1 was read as GIRK2 act inactive.
For Cn1nc(CNS(=O)(=O)c2ccc3c(c2)OCCO3)cc1-c1ccccn1 the results were GIRK2 act inactive.

An excerpt taken from the entries so far, for reference:
`COc1ccc(S(=O)(=O)N2CCCc3cc(NC(=O)c4cccc(C)c4)ccc32)cc1` gave GIRK2 act inactive.
`Cc1nc(SCC(=O)Nc2cc(Cl)cc(Cl)c2)cc(-c2ccccn2)n1` gave GIRK2 act inactive.
Screening CC(C)(C)c1ccc(S(=O)(=O)NCC#CCN2CCCC2)cc1 returned GIRK2 act inactive.
`CCOCCn1c(N(C)Cc2ccccc2)nc2c1c(=O)[nH]c(=O)n2C` gave GIRK2 act inactive.
For Cc1ccc(S(=O)(=O)c2cn(CC(=O)Nc3ccccc3)c3ccc(Cl)cc3c2=O)cc1 the results were GIRK2 act inactive.
O=C(NCCCc1ccccc1)c1sccc1S(=O)(=O)N1CCN(c2ccccc2)CC1 was read as GIRK2 act inactive.
For Cn1nc(CNS(=O)(=O)c2ccc3c(c2)OCCO3)cc1-c1ccccn1 the results were GIRK2 act inactive.

Next part.
COc1ccc(C(=O)N2CCN(S(=O)(=O)c3ccc(Cl)cc3)CC2)cc1OC was read as GIRK2 act inactive.
`CCOc1ccc(-c2ccc(=O)n(CCNS(=O)(=O)c3ccc(Cl)cc3)n2)cc1` gave GIRK2 act inactive.
For COc1ccc(CNC(=O)c2sccc2N(C)S(=O)(=O)c2ccccc2)cc1OC the results were GIRK2 act inactive.
For COc1ccc(NC(=O)CSc2cc(N3CCCCC3)ncn2)cc1 the results were GIRK2 act inactive.
`CC(C)=CCc1cc(C(=O)O)cc(CCC(C)C(=O)/C=C/C(C)(C)O)c1O` (stereo not given) gave GIRK2 act inactive.
`CC(=O)c1ccc(NC(=O)CSc2cc(C)nc3c(-c4ccc(Cl)cc4)c(C)nn23)cc1` gave GIRK2 act inactive.
Screening CCOC(=O)CSC1=C(C#N)C(c2cc(Br)c(O)c(Br)c2)CC(=O)N1 (stereo not given) returned GIRK2 act inactive.
For Cc1nc(-c2ccccc2)sc1CC(=O)N1CCn2c1nc1ccccc12 the results were GIRK2 act inactive.
For COc1nn(C)cc1C(=O)NCCC(O)C1CC1 (stereo not given) the results were GIRK2 act inactive.
`CC1CCCN(c2nn(CC(=O)Nc3cccc(C(C)C)c3)c(=O)c3ccccc23)C1` (stereo not given) gave GIRK2 act inactive.
Screening CCOc1ccccc1NC(=O)Cn1nc(N2CCSCC2)c2ccccc2c1=O returned GIRK2 act inactive.
Screening CCOc1ccccc1-c1noc(-c2nnn(-c3cccc(Cl)c3)c2C)n1 returned GIRK2 act inactive.
`COc1cccc2sc(OC3CN(C(=O)C4(c5ccccc5)CCOCC4)C3)nc12` gave GIRK2 act inactive.
`O=C(Cc1cccs1)NCC1(O)CCOc2ccccc21` (stereo not given) gave GIRK2 act inactive.
For O=C(Nc1nc2c(s1)CN(C(=O)c1cc3ccccc3[nH]1)CC2)c1ccco1 the results were GIRK2 act inactive.
`Cc1ccc(NC(=O)c2cc(Br)ccc2Cl)cc1N1CCCC1=O` gave GIRK2 act inactive.
For COc1cccc2sc(N3CC(OC(=O)CN4C(=O)CCC4=O)C3)nc12 the results were GIRK2 act inactive.
`Cc1cc(OCC(O)CNCc2ccco2)ccc1Cl` (stereo not given) gave GIRK2 act inactive.
`Cc1ccc(-c2ccc(N3CCN(S(=O)(=O)c4cccs4)CC3)nn2)cc1` gave GIRK2 act inactive.
COC(=O)Cn1c(=O)c2c(nc(-n3nc(C)cc3C)n2Cc2cccc(C)c2)n(C)c1=O was read as GIRK2 act inactive.
Screening CCOC(=O)Nc1cccc(N2CCCC2=O)c1 returned GIRK2 act inactive.
COc1cccc(NC(=O)c2nnn(Cc3nc(-c4cccc(OC)c4OC)oc3C)c2N)c1 was read as GIRK2 act inactive.
For CC1CCCCC1NC(=O)C1CCN(C(=O)N(C)C)CC1 (stereo not given) the results were GIRK2 act inactive.
`CCCNC(=O)Cn1c(=O)n(CC2CCC(C(=O)N3CCC(C)CC3)CC2)c(=O)c2sccc21` (stereo not given) gave GIRK2 act inactive.

Next part; the last 5 above are carried over.
COC(=O)Cn1c(=O)c2c(nc(-n3nc(C)cc3C)n2Cc2cccc(C)c2)n(C)c1=O was read as GIRK2 act inactive.
Screening CCOC(=O)Nc1cccc(N2CCCC2=O)c1 returned GIRK2 act inactive.
COc1cccc(NC(=O)c2nnn(Cc3nc(-c4cccc(OC)c4OC)oc3C)c2N)c1 was read as GIRK2 act inactive.
For CC1CCCCC1NC(=O)C1CCN(C(=O)N(C)C)CC1 (stereo not given) the results were GIRK2 act inactive.
`CCCNC(=O)Cn1c(=O)n(CC2CCC(C(=O)N3CCC(C)CC3)CC2)c(=O)c2sccc21` (stereo not given) gave GIRK2 act inactive.
For O=S(=O)(/C=C/c1ccccc1)N1CCCC(c2nnc(-c3ccc4c(c3)OCO4)o2)C1 (stereo not given) the results were GIRK2 act inactive.
CCOC(=O)C1CCc2sc(NC(=O)c3cc4n(n3)CCCO4)nc21 (stereo not given) was read as GIRK2 act inactive.
Screening CCOc1cc(S(=O)(=O)N2CCN=C2c2ccccc2)ccc1Br returned GIRK2 act inactive.
For CCCNC(=O)Cn1c(C2CCCO2)nc2ccccc21 (stereo not given) the results were GIRK2 act inactive.
COc1ccc(S(=O)(=O)Nc2cc3c4c(c2)CCN4C(=O)CC3)cc1 was read as GIRK2 act inactive.
Cc1ccc(-c2cnc(SCC(=O)Nc3ccc4c(c3)OCO4)o2)cc1C was read as GIRK2 act inactive.

Bioassay records from PubChem BioAssay.

Some of the compounds tested; count on the stated rates, not on these rows.
